LANA-H2A inh = blocks KSHV LANA binding to histone H2A/H2B. Q9QR71. cell-free LANA-H2A/H2B peptide, fluorescence polarization. inhibition, % (test concentration not listed). 0.6% of 320,000 active; in the data active = inhibition mostly above about 10%, no sharp cut-off; inactive = mostly below about 6.7%;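 note: stock transfer was 7.5 nL into about 10 µL; 0% = median of vehicle wells and 100% = median of positive control wells; one replicate is shown; the record names a cut of 25% in any replicate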
HNF4A DNA FP = change in binding of human HNF4 alpha to DNA; P41235; HNF4a-FITC DNA binding, fluorescence polarization, 1 h; activity change, % at 10 µM; 0.3% of 360,000 active; AID 1224865; in the data active = activity change above about 30%, passing the limit was not always enough;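 note: controls were the assay level and a saturating level of protein; the project sought stronger binding though the title names inhibitors; some compounds called inactive have numbers as strong as hits; positive values seem to mean higher polarization but the record does not say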
Target sequence (P41235 whole entry, looked up): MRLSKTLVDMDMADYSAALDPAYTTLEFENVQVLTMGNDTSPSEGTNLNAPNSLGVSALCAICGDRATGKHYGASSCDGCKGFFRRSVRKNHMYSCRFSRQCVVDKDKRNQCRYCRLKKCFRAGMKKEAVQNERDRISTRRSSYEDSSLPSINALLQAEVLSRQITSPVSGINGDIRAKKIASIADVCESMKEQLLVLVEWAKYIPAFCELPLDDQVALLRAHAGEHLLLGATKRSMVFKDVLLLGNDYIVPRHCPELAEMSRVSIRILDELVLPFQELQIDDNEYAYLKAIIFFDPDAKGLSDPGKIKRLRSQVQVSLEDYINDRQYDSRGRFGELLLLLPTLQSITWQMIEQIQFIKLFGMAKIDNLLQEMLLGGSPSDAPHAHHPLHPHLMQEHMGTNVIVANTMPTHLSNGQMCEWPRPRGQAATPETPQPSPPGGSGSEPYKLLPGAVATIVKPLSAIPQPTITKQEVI
ALR inh = blocks human ALR sulfhydryl oxidase activity; P55789; purified ALR, DTT oxidation, H2O2 HRP-luminol luminescence; inhibition, % (test concentration not listed); 3.8% of 290,000 active; AID 485317;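 active = mean and each replicate at 75% or more; inconclusive = only one of the two met; inactive = neither met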;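 note: stock transfer was 7.5 nL into about 7.5 µL; 0% = neutral wells and 100% = wells with inactivated enzyme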
Calb FLC = affects C. albicans growth with fluconazole; growth inhibition, % (concentration not given with the values); C. albicans CaCi-2 (fluconazole-resistant clinical isolate) + fluconazole, Alamar Blue growth, 48 h; 0.57% of 300,000 active; AID 1979;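 active = most replicates above 75%; inconclusive = exactly half above 75%; inactive = most below 75%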;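 note: all wells also contain fluconazole at 8 µg/ml as a sub-toxic cotreatment; 0% = median of DMSO wells and 100% = median of geldanamycin control wells; wells of about 8 µL received 7.5 nL stock; the first replicate is given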
Vif A3G = inhibitors of Vif binding to APOBEC3G peptide, primary screen, biochemical, TR-FRET, GST-Vif 1-94, biotin-A3G peptide, dose response retest (AID 1117319); one-dose inhibition, %; IC50 in µM for titrated hits; TR-FRET GST-Vif / biotin-A3G peptide binding; higher % means a stronger effect; test concentration not given here; strong numbers were not always called active; 0.57% of 260,000 active;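 active = above the screen mean plus three standard deviations and confirmed in dose response; inconclusive = results disagree or hit not tested in dose response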;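 note: Vif residues 1-94 fused to GST binding biotinylated APOBEC3G peptide 110-148; 0% = full assay without inhibitor and 100% = GST in place of GST-Vif; retest series ran down from 100 µM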
RanGTP-Imp inh = inhibitors of RanGTP-importin-beta interaction, primary screen, biochemical, FRET, CFP-Ran, YFP-importin-beta, homogeneous | cell-free CFP-Ran/YFP-importin-beta FRET ratio | AID 2216 | inhibition, % (concentration not given with the values) | 1.1% of 300,000 active;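 active = most replicates above 15%; inconclusive = exactly half above 15%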;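 note: 0% = DMSO wells and 100% = Ran loaded with GDP instead of GTP; wells of about 40 µL received 100 nL stock; the first replicate is given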
Beta2AR agonist = human beta-2 adrenergic receptor agonism by FAP; Am2.2-beta2AR cells, FAP receptor internalization, flow cytometry; reference of the scale not given here; response, % (test concentration not listed); 0.43% of 340,000 active;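 active = response above a set limit, near 3 SD of response in nonfluorescent compounds, cut at about 42% in these data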;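 note: stock transfer was 100 nL into about 11 µL; a reference agonist was the positive control; negative values mostly stem from fluorescent compounds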
Target sequence (P07550 whole entry, looked up): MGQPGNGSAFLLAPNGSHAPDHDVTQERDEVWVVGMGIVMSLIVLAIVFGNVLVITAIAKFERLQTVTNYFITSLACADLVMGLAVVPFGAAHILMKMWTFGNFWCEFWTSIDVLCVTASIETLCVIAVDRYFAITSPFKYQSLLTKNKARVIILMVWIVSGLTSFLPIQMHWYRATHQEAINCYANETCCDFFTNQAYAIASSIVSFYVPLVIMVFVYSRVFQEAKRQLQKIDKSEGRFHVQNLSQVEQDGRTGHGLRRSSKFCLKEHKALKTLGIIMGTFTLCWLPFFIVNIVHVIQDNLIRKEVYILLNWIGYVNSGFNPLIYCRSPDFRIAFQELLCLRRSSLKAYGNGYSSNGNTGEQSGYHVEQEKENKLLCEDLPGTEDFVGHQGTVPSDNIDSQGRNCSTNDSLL
The depositor's hits bear a star; ? = inconclusive; . = not tested or not shown; & = joins results of further samples. Compounds as they come; any-hit rate near 6.3%.

Value order: Calb FLC	LANA-H2A inh	ALR inh	Vif A3G	RanGTP-Imp inh	HNF4A DNA FP	Beta2AR agonist
Cc1ccc(S(=O)(=O)NNC(=O)c2cc(C)cs2)cc1
  11.0	2.8	28.8	-2.0%	-0.9	1.8	-1.7
COc1ccccc1NS(=O)(=O)c1cc(C(=O)NCCN2CCOCC2)ccc1Cl
  -1.8	1.0	-13.7	1.0%&50.7%	-2.7	1.5	-5.8
Cc1cccc(NC(=O)CNC(=O)c2cn(Cc3ccccc3)nc2-c2cccnc2)c1C
  .	1.2	-5.9	1.3%	.	-3.0	3.4
CCOC(=O)Cc1csc(SC(C)C(=O)NC2CCCCC2C)n1 (configuration not stated)
  -5.8	-4.5	.	.	1.0	-0.3	4.1
COC(=O)CN(c1ccc(C(C)C)cc1)S(=O)(=O)c1c(C)[nH]c(=O)[nH]c1=O
  -2.7	-4.2	0.5	5.5%	1.1	-1.5	2.2
CC(=O)NC12CC3CC(C1)CC(C(=O)N1CCN(S(=O)(=O)c4ccc(C(C)C)cc4)CC1)(C3)C2
  -7.5	-5.6	4.0	-0.2%	1.1	2.2	-1.6
CCn1c(CNC(=O)c2ccc(OC)cc2)nnc1SCC(=O)c1ccccc1
  -7.8	4.9	-0.6	31.3%	-1.0	-1.4	-0.2
Cc1ccc(S(=O)(=O)CCC#N)cc1
  0.2	-2.1	-7.1	.	5.3	6.0	10.1
CC(C)(Oc1ccc(Cl)cc1)C(=O)NCC(c1ccco1)N1CCCCC1 (configuration not stated)
  -7.6	-3.6	2.1	1.4%	1.5	-1.0	-0.2
Cc1noc(C)c1NC(=O)Nc1ccc2c(c1)C(=O)N([C@@H](C)CO)C[C@@H](C)[C@@H](CN(C)Cc1ccc3c(c1)OCO3)O2
  .	.	-5.2	-1.4%	.	1.9	12.8
CCn1c(CSc2nccn2C)nc2cc(C(=O)O)ccc21
  -16.4	2.2	97.8*	30.4%	0.3	0.5	-3.3
CCc1ccc(NC(=O)CN2CCC(C(=O)c3ccc(OC)cc3)CC2)cc1
  -22.4	-0.6	-3.7	.	1.8	0.1	-3.5
Cc1nc(N2CCN(C)CC2)c2cc(-c3ccccc3)sc2n1
  -2.4	-3.8	96.5*	-0.6%	6.7	0.2	-9.4
CCCCn1c(N)c(N(CC(C)C)C(=O)CSCC(=O)Nc2ccc(OC)cc2)c(=O)[nH]c1=O
  7.5	-0.8	-2.7	-7.3%	2.9	-1.0	-2.8
CCN1CCN(C(=O)/C=C/c2ccc(C(C)C)cc2)CC1
  -10.5	4.2	28.6	.	-1.9	2.0	2.6
Cc1cc(C)n(CC(O)CN(c2cccc([N+](=O)[O-])c2)S(=O)(=O)c2ccccc2)n1 (configuration not stated)
  -6.6	-1.6	1.3	.	0.3	-3.4	2.2
O=C(NC1=NCCS1)c1cccc(OC(F)F)c1
  21.8	0.3	2.7	?	-0.5	-1.1	-0.7
O=C(O)c1cc(S(=O)(=O)N2CCCCC2)ccc1N1CCCCC1
  .	8.6	-1.0	-2.8%	.	0.6	13.0
Cc1sc2ncnc(Sc3nnc4sc5ccccc5n34)c2c1C
  5.0	-1.2	6.7	14.3%	1.2	.	.
COc1cc2ccccc2cc1C(=O)Nc1ccc(S(=O)(=O)Nc2cc(C)on2)cc1
  0.0	5.3	48.3	1.3%	2.0	0.6	1.2
CCOC(=O)C1=C(N)OC2=C(C(=O)CCC2)C1c1ccc(C)s1 (configuration not stated)
  -4.0	-8.2	45.2	67.5%	?	1.3	-5.0
CCc1nnc(SCC(=O)Nc2ccccc2Cl)nc1CC
  20.2	1.3	98.1*	1.1%	2.6	2.7	-4.0
c1cc2c(cc1C1=Nn3c(nnc3C3CCCCC3)SC1)OCO2
  10.0	1.7	-3.6	-8.7%&6.5%	?	3.4	-29.9
O=C(CN1CCCCCC1)N/N=C/c1ccc(Cl)c(Cl)c1
  -3.7	0.5	.	8.9%	-0.7	2.5	-6.0
CC(c1ccco1)N(C(=O)c1ccc(S(=O)(=O)N2CCCCC2)cc1)c1ccccn1 (configuration not stated)
  -5.0	0.4	0.4	8.1%	-3.3	-2.3	10.4
COc1ccc(Br)cc1[C@H]1[C@@H]2C=CCC[C@@]2(C)C(=O)N1Cc1ccccc1
  -4.4	-2.2	.	-2.2%	1.5	10.9	18.0
COc1cc(OC)cc(C(=O)N(CCCN2C(=O)c3cccc4cccc(c34)C2=O)c2cccc(OC)c2)c1
  1.0	-2.3	.	.	0.5	-1.4	6.1
O=C(Nc1scc(-c2ccccc2)c1C(=O)O)c1ccc(F)cc1
  -3.0	-6.4	.	-2.4%	1.4	-0.5	0.4
CC(C)Nc1ccc(C(CC(N)=O)NC(=O)Cc2cccc3ccccc23)cc1[N+](=O)[O-] (configuration not stated)
  -1.2	2.3	0.4	2.2%	6.4	124.0	-1.2
COc1ccc(C(C)=O)cc1CN1C(=O)NC2(CCCCC2)C1=O
  -22.4	-1.4	-0.2	-0.5%	1.6	-2.1	-6.0

Next results:
Value order: Calb FLC	LANA-H2A inh	ALR inh	Vif A3G	RanGTP-Imp inh	HNF4A DNA FP	Beta2AR agonist
CCOC(=O)C1(Cc2ccccc2)CCN(Cc2nccn2CC)CC1
  -23.2	-1.5	-0.6	17.5%	-2.9	2.0	8.9
Cc1ccc(C)n1Cc1ccc(C(=O)O)cc1
  .	1.7	.	1.55µM*	.	-67.0	-4.7
COc1c(N)c2ccccc2[nH]c1=O
  -18.9	0.8	4.5	3.8%	6.1	0.1	5.2
COc1cccc(C(=O)c2cc3cc(Cl)ccc3[nH]2)c1
  -14.4	2.6	-7.9	.	1.5	-3.9	-6.4
Cc1ccc(N(C(=O)c2ccccc2Cl)C2=NC(C)CS2)c(C)c1 (configuration not stated)
  -18.5	0.5	-2.3	0.2%	1.3	-3.5	0.0
CCC1CCCCN1C(=O)COC(=O)c1ccc(S(=O)(=O)N2CCOCC2)cc1 (configuration not stated)
  -9.5	.	.	14.8%	-0.7	0.7	4.1
O=C(NCc1ccco1)c1ccc2c(c1)OCCO2
  -3.2	-2.9	2.1	-1.9%	?	1.9	0.9
O=C(NCCc1cccc(F)c1)[C@@H]1CSC2c3ccccc3C(=O)N21 (some centres not stated)
  3.4	2.2	-4.5	14.8%	0.4	1.7	1.7
CCCOc1ccc(Br)cc1/C=N/NC(=O)c1cc(OC)c(OC)c(OC)c1
  -2.3	0.8	5.8	14.7%	-2.4	-4.5	-4.0
COc1ccc(C(=O)CSc2nc(C)cc(=O)[nH]2)cc1C
  -4.0	-2.2	5.6	-11.6%	2.8	-2.4	5.1
CC(O)CNCCOc1ccccc1-c1ccccc1 (configuration not stated)
  4.8	-0.4	.	13.7%	3.5	-0.4	-3.3
COc1ccc(OC)c(C(=O)c2c(C)oc3cc([N+](=O)[O-])c(O)c([N+](=O)[O-])c23)c1
  19.4	-0.8	.	15.3%	-0.4	1.4	7.3
N=c1n(CCN2CCOCC2)c2ccccc2n1CC(=O)c1ccc(Cl)c(Cl)c1
  -6.2	-4.5	3.0	-0.9%	2.7	0.1	-0.7
Cc1ccc2nc(-c3ccc(NC(=O)COC(=O)c4ccc(=O)[nH]c4)cc3)sc2c1
  4.3	-0.1	-2.8	?	-3.6	6.6	7.2
Cc1ccc(S(=O)(=O)N2CCOCC2)cc1C(=O)NCc1ccc2c(c1)OCO2
  -16.5	4.6	-13.9	2.0%	6.5	-0.8	1.8
Cc1ccc(-c2nc3ncccn3c2NC2CCCC2)o1
  -13.7	1.9	98.7*	27.5%	4.4	-2.1	.
Cc1ccc(SCCC(=O)Nc2cc(C)on2)cc1
  6.2	1.9	1.6	-1.5%	4.6	1.0	-1.7
Cc1cccc(C)c1OCc1cc(C(=O)N2CCCC2c2nonc2C)no1 (configuration not stated)
  2.4	-7.2	0.2	.	5.1	0.3	1.0
O=C(CCC(=O)NC1CCCCCCC1)Nc1nnc(C(F)(F)F)s1
  -27.8	1.3	-3.1	3.4%	9.5	-2.8	-1.5
Cc1ccccc1OCc1nc2c3c(ncn2n1)-c1ccccc1CC31CCCC1
  -40.7	-1.0	-3.2	24.8%	4.2	0.7	1.3
CC(C)C(NC(=O)c1ccc(C(C)(C)C)cc1)C(=O)N1CCCC1 (configuration not stated)
  -14.7	6.8	-5.0	.	7.8	3.6	2.3
CNC(=O)C(=O)Nc1cc2c3c(c1)CCN3C(=O)CC2
  0.0	4.7	-3.3	.	-2.7	-5.1	2.9
CCc1ccccc1NC(=O)C1CCCN(c2nccc(C)n2)C1 (configuration not stated)
  2.5	-0.8	0.3	.	-3.6	0.7	-8.3
O=C(NCc1cccs1)c1nn2cccnc2c1Cl
  4.5	-1.6	0.5	0.4%	7.2	0.0	2.2
CC(=O)Nc1nc2n(n1)C(c1ccc(Cl)cc1)C=C(C)N2 (configuration not stated)
  -13.5	0.2	-0.1	20.2%	-1.3	-3.0	6.7
Cc1ccc(SCC(=O)OC(C)C(=O)NCc2ccccc2)cc1C (configuration not stated)
  -5.5	-7.4	-0.2	-4.7%	-0.2	-1.8	3.5
Cc1ccc(S(=O)(=O)CCC(=O)Nc2ccccc2Cl)cc1
  -3.1	2.2	.	2.1%	-4.7	4.7	2.4
COc1ccc(NC(=O)C2CCC(N3C(=O)C4C5C=CC(C5)C4C3=O)CC2)cc1 (configuration not stated)
  -1.8	-4.5	-9.4	0.7%	0.5	2.4	15.6
CCn1cc(SCC(N)=O)c2ccccc21
  -3.2	-0.2	95.6*	-0.7%	-0.5	-2.4	-1.5
Oc1ccc(-c2cn3ccccc3n2)cc1
  7.9	-2.3	99.0*	-2.6%	-1.4	0.8	0.7

Ten compounds out of the list, sorted by SMILES length, lowest first:
Value order: Calb FLC	LANA-H2A inh	ALR inh	Vif A3G	RanGTP-Imp inh	HNF4A DNA FP	Beta2AR agonist
Cc1ccc(SCCC(=O)Nc2cc(C)on2)cc1
  6.2	1.9	1.6	-1.5%	4.6	1.0	-1.7
CCN1CCN(C(=O)/C=C/c2ccc(C(C)C)cc2)CC1
  -10.5	4.2	28.6	.	-1.9	2.0	2.6
Cc1ccc(S(=O)(=O)CCC(=O)Nc2ccccc2Cl)cc1
  -3.1	2.2	.	2.1%	-4.7	4.7	2.4
c1cc2c(cc1C1=Nn3c(nnc3C3CCCCC3)SC1)OCO2
  10.0	1.7	-3.6	-8.7%&6.5%	?	3.4	-29.9
CC(=O)Nc1nc2n(n1)C(c1ccc(Cl)cc1)C=C(C)N2 (configuration not stated)
  -13.5	0.2	-0.1	20.2%	-1.3	-3.0	6.7
O=C(Nc1scc(-c2ccccc2)c1C(=O)O)c1ccc(F)cc1
  -3.0	-6.4	.	-2.4%	1.4	-0.5	0.4
O=C(NCCc1cccc(F)c1)[C@@H]1CSC2c3ccccc3C(=O)N21 (some centres not stated)
  3.4	2.2	-4.5	14.8%	0.4	1.7	1.7
N=c1n(CCN2CCOCC2)c2ccccc2n1CC(=O)c1ccc(Cl)c(Cl)c1
  -6.2	-4.5	3.0	-0.9%	2.7	0.1	-0.7
COc1ccc(Br)cc1[C@H]1[C@@H]2C=CCC[C@@]2(C)C(=O)N1Cc1ccccc1
  -4.4	-2.2	.	-2.2%	1.5	10.9	18.0
Cc1cc(C)n(CC(O)CN(c2cccc([N+](=O)[O-])c2)S(=O)(=O)c2ccccc2)n1 (configuration not stated)
  -6.6	-1.6	1.3	.	0.3	-3.4	2.2
